CDC25B-CDK2 inh: human CDC25B-CDK2/CyclinA binding inhibition. 94,000 compounds, 0.72% hits. z-score (concentration not given with the values). HTRF CDC25B-CDK2/CyclinA binding, anti-His/anti-Flag; stronger effect = higher value. P30305+P24941. AID 1259370;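 note: score is relative to mean and SD of negative controls; strong numbers were not always called active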
HIV TAR-Tat: HIV-1 TAR-Tat binding disruption; HIV-1 TAR RNA, Tat peptide displacement FRET; stronger effect = higher value; z-score (no concentration beside the values); 100,000 compounds, 0.6% hits; AID 1259389;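 note: score is relative to mean and SD of negative controls; some compounds called inactive have numbers as strong as hits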
Numbers without * were called inactive.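 Rule for the calls: active = z-score from 3 up in half or more of its runs; inactive = the rest.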

How did Cc1ccc(CN(C(=O)c2cc(-c3ccc(Cl)cc3)on2)C2CCS(=O)(=O)C2)o1 (stereo not drawn) do in these assays?
CDC25B-CDK2 inh: -1.1; HIV TAR-Tat: 1.6

How did COCCCN1C(=O)c2[nH]nc(-c3ccccc3O)c2C1c1ccc(O)c(OC)c1 (stereo not drawn) do in these assays?
CDC25B-CDK2 inh: 0.96; HIV TAR-Tat: 1

What do the screens show for `Cc1cccc(Cn2c(Sc3nc(C)cs3)nc3c2c(=O)[nH]c(=O)n3C)c1`?
CDC25B-CDK2 inh: -1.5; HIV TAR-Tat: 0.05

What do the screens show for `c1ccc2c(c1)CCCC2Nc1ncnc2c1nc1n2CCCCC1` (stereo not drawn)?
HIV TAR-Tat: -0.97

Results for Cc1csc2nc(COC(=O)c3ccc4c(c3)OCO4)cc(=O)n12 ?
HIV TAR-Tat: 1.3

Results for CC(Sc1nc2ncccc2[nH]1)C(=O)Nc1ccc(F)cc1 (stereo not drawn) ?
HIV TAR-Tat: 0.75

Results for Fc1ccc(CNc2nc3ccccc3n3cnnc23)cc1 ?
CDC25B-CDK2 inh: -3.7; HIV TAR-Tat: 1.2

How did O=c1[nH]c(=O)c2nc3cc(C(F)(F)F)ccc3nc2[nH]1 do in these assays?
CDC25B-CDK2 inh: -0.89

What do the screens show for `O=C(CCCN1C(=O)/C(=C\c2cccs2)SC1=S)Nc1ccccc1C(=O)O`?
CDC25B-CDK2 inh: -0.09

How did Cc1cccc(C(=O)N2N=C(c3cccc(Br)c3)CC2(O)C(F)(F)F)c1 (stereo not drawn) do in these assays?
CDC25B-CDK2 inh: -3.3

What do the screens show for `NC(=O)c1sc(=S)n(-c2ccc(Br)cc2)c1N`?
CDC25B-CDK2 inh: -0.95; HIV TAR-Tat: 0.36

How did O=c1ccc(N2CCOCC2)n[nH]1 do in these assays?
CDC25B-CDK2 inh: -0.16; HIV TAR-Tat: 0.25

What do the screens show for `Cc1cc2c(cc3n2CC(C)(C(=O)NC2CCCCC2)N(CCN(C)C)C3=O)o1` (stereo not drawn)?
HIV TAR-Tat: 1.9

Results for Cc1ccccc1-c1noc(C(C)NS(=O)(=O)c2ccc(Cl)cc2)n1 (stereo not drawn) ?
CDC25B-CDK2 inh: 0.08; HIV TAR-Tat: 2.3

What do the screens show for `CCOC(=O)N1CCC(N2CC34C=CC(O3)C(C(=O)Nc3ccc(C(C)C)cc3)C4C2=O)CC1` (stereo not drawn)?
CDC25B-CDK2 inh: -1.5; HIV TAR-Tat: -0.83

How did CS/C(=N/B(c1ccccc1)c1ccccc1)c1c(C)cc(N(C)C)cc1O do in these assays?
CDC25B-CDK2 inh: 0.73

How did CCOC(=O)CSc1nc(-c2cccs2)nc2c1c(=O)n(C)c(=O)n2C do in these assays?
CDC25B-CDK2 inh: -2

Results for CC1=NC2SC=C(c3ccccc3Cl)N2C(=O)C1 (stereo not drawn) ?
CDC25B-CDK2 inh: -1.1

How did CCCCN(C)S(=O)(=O)c1cc2c(cc1C)N(C)CCO2 do in these assays?
HIV TAR-Tat: 1.7

How did COc1ccc(N2CC(c3nnc(SCC(=O)c4ccc(Cl)cc4)o3)CC2=O)cc1Cl (stereo not drawn) do in these assays?
CDC25B-CDK2 inh: -8; HIV TAR-Tat: -1.4

How did CCOC(=O)CC(=O)CSc1ccc2nnc(-c3ccc(OCC)cc3)n2n1 do in these assays?
CDC25B-CDK2 inh: -0.57

How did Cc1ccc(-n2ncc3c2ncn2nc(COc4ccccc4C)nc32)cc1C do in these assays?
CDC25B-CDK2 inh: -0.77; HIV TAR-Tat: 1.4

How did CC1CCc2onc(C(=O)Nc3ccc(F)cc3F)c2C1 (stereo not drawn) do in these assays?
HIV TAR-Tat: 2

How did COCCOC(=O)c1c(C)oc2ccc(OCC(=O)c3ccc(Br)cc3)cc12 do in these assays?
CDC25B-CDK2 inh: -4.4; HIV TAR-Tat: 1.8

Results for Cc1ccc(S(=O)(=O)Oc2c(Cl)cc(Cl)cc2C=Nc2cc(C)c(C)cc2C)cc1 ?
CDC25B-CDK2 inh: -2.1

How did Cc1cc(NC(=O)c2cc(C(C)(C)C)oc2C)no1 do in these assays?
CDC25B-CDK2 inh: -0.28

What do the screens show for `CC1CN=C(c2ccccc2N)N1` (stereo not drawn)?
CDC25B-CDK2 inh: -0.36

What do the screens show for `CCN(CC)C(=O)c1ccc(C)c(NC(=O)C2=C(C)OCCS2)c1`?
HIV TAR-Tat: 1

What do the screens show for `CSc1nc(N)c2c3c(sc2n1)CC(C)CC3` (stereo not drawn)?
CDC25B-CDK2 inh: -4

What do the screens show for `O=C1CSc2ccc(S(=O)(=O)NC3CCCC3)cc2N1`?
HIV TAR-Tat: 3.6

How did COc1cc(C2C(=O)N(C3CCCCCC3)CC(=O)N2Cc2cccs2)ccc1OC(C)C (stereo not drawn) do in these assays?
CDC25B-CDK2 inh: -2.6

How did CN1CCCCC1CCN1c2ccccc2Sc2ccc(S(C)=O)cc21 (stereo not drawn) do in these assays?
HIV TAR-Tat: 1.8

Results for CC1=C(C(=O)OC2CCCC2)C(c2cccc(C)c2)C2=C(CCCC2=O)N1 (stereo not drawn) ?
CDC25B-CDK2 inh: 0.42; HIV TAR-Tat: -1.1

How did CCC(=O)Nc1ccc2nc3c(=O)n(C)c(=O)n(C)c3nc2c1 do in these assays?
CDC25B-CDK2 inh: -0.07; HIV TAR-Tat: 0.46

How did COc1ccc(N(CC(=O)O)S(=O)(=O)c2ccc(OC)c(OC)c2)cc1 do in these assays?
CDC25B-CDK2 inh: 0.32; HIV TAR-Tat: -0.2

What do the screens show for `CC1=C(c2ccc(C)cc2)S(=O)(=O)N=C1N1CCN(c2cccc(C)c2)C(C)C1` (stereo not drawn)?
CDC25B-CDK2 inh: -3.6; HIV TAR-Tat: 2.9

How did c1ccc(CN2CCN(c3ncnc4c3cnn4-c3ccccc3)CC2)cc1 do in these assays?
HIV TAR-Tat: 1.4

How did CCCS(=O)(=O)n1nc(-c2ccc(OC)cc2)cc1N do in these assays?
CDC25B-CDK2 inh: -1.2; HIV TAR-Tat: 0.96

Results for CCOC(=O)c1ccc(NC(=O)CCC(=O)O)cc1 ?
CDC25B-CDK2 inh: -0.87

How did CCOC(=O)c1sc(NC(=O)CSc2[nH]c(=O)ncc2C)nc1C do in these assays?
HIV TAR-Tat: 2.6

How did CCOC(=O)C1=C(C)NC(=O)NC1c1ccc2c(c1)OCO2 (stereo not drawn) do in these assays?
CDC25B-CDK2 inh: -2.1

Results for Nc1n[nH]c(-c2ccc(Br)cc2)n1 ?
CDC25B-CDK2 inh: -1; HIV TAR-Tat: 0.4

Results for Cn1nnnc1SCCCNCC#Cc1ccccc1 ?
CDC25B-CDK2 inh: -0.05; HIV TAR-Tat: 0.57

Results for Nc1ccccc1C(=O)N/N=C/c1ccc2c(c1)OCO2 ?
CDC25B-CDK2 inh: -1.2

Results for CC1=C(c2cccc(Cl)c2)S(=O)(=O)N=C1N1CCN(c2ccccn2)CC1 ?
CDC25B-CDK2 inh: -0.59; HIV TAR-Tat: 0.52

Pulled one by one from the entries so far (7):
Results for Nc1ccccc1C(=O)N/N=C/c1ccc2c(c1)OCO2 ?
CDC25B-CDK2 inh: -1.2

Results for Cn1nnnc1SCCCNCC#Cc1ccccc1 ?
CDC25B-CDK2 inh: -0.05; HIV TAR-Tat: 0.57

How did COc1ccc(N(CC(=O)O)S(=O)(=O)c2ccc(OC)c(OC)c2)cc1 do in these assays?
CDC25B-CDK2 inh: 0.32; HIV TAR-Tat: -0.2

How did COc1cc(C2C(=O)N(C3CCCCCC3)CC(=O)N2Cc2cccs2)ccc1OC(C)C (stereo not drawn) do in these assays?
CDC25B-CDK2 inh: -2.6

How did CCC(=O)Nc1ccc2nc3c(=O)n(C)c(=O)n(C)c3nc2c1 do in these assays?
CDC25B-CDK2 inh: -0.07; HIV TAR-Tat: 0.46

How did CCCS(=O)(=O)n1nc(-c2ccc(OC)cc2)cc1N do in these assays?
CDC25B-CDK2 inh: -1.2; HIV TAR-Tat: 0.96

Results for CC1=C(C(=O)OC2CCCC2)C(c2cccc(C)c2)C2=C(CCCC2=O)N1 (stereo not drawn) ?
CDC25B-CDK2 inh: 0.42; HIV TAR-Tat: -1.1

Other structures
Results for CCCc1[nH]nc2c1C(c1ccc(OC)cc1OC)C(C#N)=C(N)O2 (stereo not drawn) ?
CDC25B-CDK2 inh: -2.1; HIV TAR-Tat: -0.03

What do the screens show for `CN(C)S(=O)(=O)c1ccc(-n2cnnn2)cc1`?
CDC25B-CDK2 inh: -1.1; HIV TAR-Tat: -0.36

How did Clc1cccc(CSCc2nc3ccccc3[nH]2)c1 do in these assays?
CDC25B-CDK2 inh: -0.98; HIV TAR-Tat: 1.6

What do the screens show for `CCCCSc1nnc2c(n1)OC(c1ccc(I)o1)Nc1ccccc1-2` (stereo not drawn)?
CDC25B-CDK2 inh: -3.2

How did COc1ccccc1NC(=O)CN1N=NC2C(=O)N(c3ccc(Br)cc3)C(=O)C21 (stereo not drawn) do in these assays?
HIV TAR-Tat: 0.31

What do the screens show for `CCCc1c(C)nc2ncnn2c1Nc1ccc(C)cc1`?
CDC25B-CDK2 inh: -0.35; HIV TAR-Tat: 0.18

Results for O=c1oc2ccccc2n1CCc1nc(-c2ccc(C(F)(F)F)cc2)no1 ?
CDC25B-CDK2 inh: -1.2

How did CCCN1C(SCC(=O)NCCC(C)C)=NS(=O)(=O)c2ccccc21 do in these assays?
HIV TAR-Tat: 2.5

How did Cc1nc(N2CCN(C(c3ccccc3)c3ccccc3)CC2)nc2c1C(=O)CCC2 do in these assays?
CDC25B-CDK2 inh: -1.3; HIV TAR-Tat: -8.6

Results for COC(=O)c1cc(-c2ccco2)c2c(=O)[nH]c(=O)n(C)c2n1 ?
CDC25B-CDK2 inh: 5.3; HIV TAR-Tat: -0.08

What do the screens show for `Fc1ccc(Nc2cccc3nonc23)cc1`?
CDC25B-CDK2 inh: 0.79; HIV TAR-Tat: -5.4

How did O=C(Nc1ccc2nc(SCC(=O)N3CCOCC3)sc2c1)C1CCCCC1 do in these assays?
CDC25B-CDK2 inh: 1.1; HIV TAR-Tat: 2

What do the screens show for `CN(Cc1ccco1)C(=O)c1cc2c(s1)-c1ccccc1OC2`?
CDC25B-CDK2 inh: -1.4; HIV TAR-Tat: 1.1

Results for O=C1CN(Cc2ccccc2Cl)S(=O)(=O)c2ccccc2N1Cc1cccc(F)c1 ?
HIV TAR-Tat: 0.6

How did COc1cccc(Oc2ccc(OC)cc2C(=O)NN)c1 do in these assays?
CDC25B-CDK2 inh: -2.5

What do the screens show for `CC(C)(C)NC(=O)CNS(=O)(=O)c1cccs1`?
HIV TAR-Tat: 0.18

What do the screens show for `O=S(=O)(NCCc1csc(-c2ccc(F)cc2)n1)c1ccc(F)cc1F`?
HIV TAR-Tat: 0.36

What do the screens show for `CC(C)NC(=O)CN1C(=O)CCSc2ccc(S(=O)(=O)N3CCCC3)cc21`?
HIV TAR-Tat: 2.1

What do the screens show for `CCOc1cccc2c1OC(c1ccc(OC)cc1)N1N=C(c3ccco3)CC21` (stereo not drawn)?
CDC25B-CDK2 inh: -2.1; HIV TAR-Tat: -3.5

How did CC(=O)N1CC(C)(C)c2cc(S(=O)(=O)N3CCC(N4CCCCC4)CC3)ccc21 do in these assays?
HIV TAR-Tat: 0.65

What do the screens show for `Cc1cc(C)n2ncc(C(=O)NC(C)C)c2n1`?
HIV TAR-Tat: -0.77

Results for CCNc1nc(Nc2cccc(OC)c2)c2cnn(C)c2n1 ?
HIV TAR-Tat: 1.8

Results for Nc1nc2[nH]c(=O)[nH]c(=O)c2s1 ?
CDC25B-CDK2 inh: -2.8

Results for O=C1Nc2ccc(S(=O)(=O)NCCO)c3cccc1c23 ?
CDC25B-CDK2 inh: -3.4; HIV TAR-Tat: 0.23

Results for CCN1CCN(c2cc3c(cc2F)c(=O)c(S(=O)(=O)c2cc(C)ccc2C)cn3C)CC1 ?
HIV TAR-Tat: 0.07

Results for CCCCN1CN=C(Nc2nc(C)c3ccccc3n2)NC1 ?
CDC25B-CDK2 inh: 2.4; HIV TAR-Tat: 1.5

Results for CCCCN(C)c1nnc(NC(=O)Nc2cc(OC)cc(OC)c2)s1 ?
CDC25B-CDK2 inh: -4.6; HIV TAR-Tat: 1

How did COc1cc(OC)cc(-c2nc(-c3cccc(C)c3)no2)c1 do in these assays?
CDC25B-CDK2 inh: 0.16; HIV TAR-Tat: -0.04

How did CCCS(=O)(=O)N1CCCc2ccc(NS(=O)(=O)c3c(C)cc(C)cc3C)cc21 do in these assays?
HIV TAR-Tat: 1.4

How did O=C(O)CCC(=O)N1c2ccccc2NC2=C(C(=O)CCC2)C1c1ccco1 (stereo not drawn) do in these assays?
HIV TAR-Tat: 0.06

Results for CCOC(=O)c1c(NC(=O)N2CCOc3ccc(Cl)cc32)sc2c1CCCC2 ?
HIV TAR-Tat: 1.7

How did Cn1cccc1-c1cc2n(n1)CCC(=O)N2CC(=O)NC1CCCCC1 do in these assays?
HIV TAR-Tat: 1.1

What do the screens show for `C=CCOc1ccc(/C(O)=C2\C(=O)C(=O)N(CCN3CCOCC3)C2c2ccc(F)cc2)c(C)c1` (stereo not drawn)?
CDC25B-CDK2 inh: -1.1; HIV TAR-Tat: -0.08

Results for COc1cccc(-c2nnc3n2N=C(c2ccc(C)cc2)CS3)c1 ?
HIV TAR-Tat: 0.85

Results for c1ccc(OCc2nnc3sc(-c4cccnc4)nn23)cc1 ?
CDC25B-CDK2 inh: -1; HIV TAR-Tat: 1.6

What do the screens show for `Cc1ccc(-c2onc(C)c2C)cc1S(=O)(=O)Nc1cccc(Br)c1`?
HIV TAR-Tat: 1.6

Results for O=C(NCCCN1CCOCC1)c1csc2c1CCCC2 ?
CDC25B-CDK2 inh: -4.2; HIV TAR-Tat: -0.58

How did Cc1csc(N2N=C(c3ccccc3)CC2c2cccs2)n1 (stereo not drawn) do in these assays?
CDC25B-CDK2 inh: -1.1; HIV TAR-Tat: -0.23

Compound activity (PubChem BioAssay)
